From PubChem BioAssay
Tg IFNy HTS – T. gondii growth inhibition under IFN-gamma; Toxoplasma gondii growth in IFN-gamma-treated host cells; hits give low values; reference of the scale not given here; AID 1259416; 3.8% of 69,000 active; activity change, negative = inhibition, %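 (about 20 µM by stock and volumes)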;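 active = below -70%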;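 note: host cells are HeLa cells infected with Toxoplasma gondii; parasite growth read as luciferase light; one replicate is shown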
Active calls of the source: *; & = joins results of further samples.

smiles	Tg IFNy HTS
Cc1cccc(NC(=O)c2cc3cccnc3n(Cc3ccccc3F)c2=O)c1C	25
C[C@@H]1CN(C2CCC(C#N)(c3ccc(F)cc3)CC2)CC[C@]1(C(=O)O)c1ccccc1 (stereo partly drawn)	2
CC(C)OC12Oc3ccccc3C=C1N1CCC2CC1 (stereo not drawn)	6
Cc1cccc(C)c1NC(=O)c1cc2cccnc2n(Cc2ccc(Cl)cc2)c1=O	12
Cc1cccc(OCC(=O)N2CCCN3CCC[C@H]3C2)c1C	2
CC(C)N1CCO[C@@H]2CN(Cc3nccs3)C[C@@H]21	5
CC(C)n1cnc2c(C(=O)N[C@H]3CN4CCC3CC4)cc(Cl)cc21	14
CCOc1ccc(/C=C/C(=O)C2C(=O)NC34CCCCC3C2c2ccccc2O4)cc1OC (stereo not drawn)	-80*
O=C(Nc1ccc(CC(=O)N2CCN3CCNC(=O)C3C2)cc1)C1CC1 (stereo not drawn)	4
O=c1c2ccccc2nc(/C=C/c2ccc3c(c2)OCO3)n1-c1ccccc1	18
C/C1=C/C[C@@H](/C(C)=C/c2csc(C)n2)OC(=O)C[C@H](O)C(C)(C)C(=O)[C@H](C)[C@@H](O)[C@@H](C)CCC1	-60
O=c1c2ccccc2nc(/C=C/c2ccc(Cl)cc2)n1-c1cccc(C(F)(F)F)c1	-68

smiles	Tg IFNy HTS
O=C(c1ccc2ccccc2c1)C12CN3CN(CN(C3)C1)C2	4
CC(=O)N1CCCCC12CCNC2 (stereo not drawn)	-2
CN1CCC(c2c[nH]c3ccc(O)cc23)CC1	15&11
CCNC(=O)C[C@@H]1N=C(c2ccc(Cl)cc2)c2cc(OC)ccc2-n2c(C)nnc21	13
Cc1ccc(CNC(=O)c2cc3cccnc3n(Cc3ccc(F)cc3)c2=O)cc1	-8
COc1ccc2c(c1)[C@]13CCCC[C@@H]1[C@H](C2)N(C)CC3	12
CCc1ccccc1NC(=O)c1cc2cccnc2n(Cc2ccc(Cl)cc2)c1=O	123
CC1=NN=C(c2ccc(N)cc2)c2cc3c(cc2C1)OCO3	5
CN1C2CCC1CC(=NOC(=O)c1ccc(F)cc1)C2	10
O=C1CNC[C@H]2[C@H](c3ccc(Br)cc3)[C@H](CO)N12	-17
C=CC[C@@]1(O)CC[C@H]2[C@@H]3CCC4=CC(=O)CCC4=C3C=C[C@@]21C	12
c1ccc2c(c1)CN(Cc1ccncc1)CC1(CCOCC1)O2	-36

smiles	Tg IFNy HTS
C[C@@]12CC(O)CCN1CCc1ccccc12 (stereo partly drawn)	2
CN(C)CCN(C)CCc1ccc(Cl)c(Cl)c1	10&4
COc1cccc(-c2ccc([C@@H]3[C@H]4CN(C(=O)Cc5ccncc5)CCCCN4[C@H]3CO)cc2)c1	3
CC(C)=CCC12CN3CCN(CC(C3)C1=O)C2	-4
COc1ccccc1CCNC(=O)c1cc2cccnc2n(Cc2ccc(Cl)cc2)c1=O	-15
O=C(Nc1ccon1)c1cc2cccnc2n(Cc2ccccc2)c1=O	59
O=Cc1cn(Cc2ccc(F)cc2)c2ccccc12	-3
CN1CC2(CCN(c3nccc(N)n3)CC2)CC1C(=O)O (stereo not drawn)	3
CCN(CC)Cc1ccc(C(=O)N(C)c2nc3c(s2)C2CCC(C3)N2C)o1 (stereo not drawn)	-10
Clc1ccc2c(N3CCCC4(CCNC4)C3)ccnc2c1 (stereo not drawn)	-5
NC(=O)CS(=O)C(c1ccccc1)c1ccccc1 (stereo not drawn)	9
C[C@@H]1CC[C@@]2(OC1)O[C@H]1C[C@H]3[C@@H]4CC=C5C[C@H](O[C@@H]6O[C@@H](CO)[C@@H](O[C@@H]7O[C@@H](C)[C@H](O)[C@@H](O)[C@@H]7O)[C@H](O)[C@H]6O[C@@H]6O[C@@H](C)[C@H](O)[C@@H](O)[C@H]6O)CC[C@]5(C)[C@@H]4CC[C@]3(C)[C@@H]1[C@H]2C	-68

smiles	Tg IFNy HTS
C(=C\c1ccccc1)/CN1CCC2(CCNCC2)C1	-41
CCCN1C(=O)C(C(=O)/C=C/c2ccc(C)cc2)C2c3ccccc3OC13CCCCC23 (stereo not drawn)	4
O=C(NCC(F)(F)F)C1=NOC2(CCNC2)C1 (stereo not drawn)	106
COc1ccccc1CNC(=O)c1cc2cccnc2n(Cc2ccccc2F)c1=O	11
O=C(NCc1c(F)cccc1F)c1cc2cccnc2n(Cc2ccc(F)cc2)c1=O	-19
CC(=O)Nc1cccc(NC(=O)c2cc3cccnc3n(Cc3ccccc3F)c2=O)c1	81
CC1(C)CC(n2cnnc2)CC(C)(C)N1	5
O=C1[C@H]2CCN(Cc3ccccn3)C[C@H]2OCCN1c1ccsc1	-7
Cc1cc(Br)ccc1NC(=O)c1cc2cccnc2n(Cc2ccc(F)cc2)c1=O	55
O=C(N[C@H]1CN2CCC1CC2)c1cc2cccc(Cl)c2s1	0
O=C(Nc1ccc(F)cc1)c1cc2cccnc2n(Cc2ccccc2F)c1=O	101
Cc1c(C(=O)c2cccc3ccccc23)c2cccc3c2n1[C@@H](CN1CCOCC1)CO3	-9

smiles	Tg IFNy HTS
O=C(c1ccco1)N1CC2CC(C1)N(CCO)C2 (stereo not drawn)	15
CN(C)C(=O)Oc1c(-c2ccccc2)cn(Cc2ccccc2)c(=O)c1-c1ccccc1	-84*
Cc1ccnc(N2C[C@H](c3cccc(F)c3F)[C@@H]3[C@H]2C2CCN3CC2)n1	1
CN1CCN2CCN(c3ncccc3Cl)CC2C1=O (stereo not drawn)	3
CC1=CC[C@@H]2[C@@H](C1)c1c(O)cc(CC#CCCCNS(C)(=O)=O)cc1OC2(C)C	3
CO[C@@H]1CCN(C(=O)c2ccc(C)cn2)[C@H]2CN(CC3CC3)C[C@@H]12	294
COc1ccc(CN2C3CCC2CC(O)(Cn2ccc4ncccc42)C3)cc1OC (stereo not drawn)	-23
CN1C[C@H]2CN(Cc3nccn3C)C[C@H]2C1=O	88
CC(=O)Oc1ccc(Cl)c2cccnc12	12
Cc1ccc(NC(=O)c2cc3cccnc3n(Cc3ccc(F)cc3)c2=O)c(C)c1	-9
Cc1nc(N(C)C)nc2c1COCC21CCN(CC2CC2)C1 (stereo not drawn)	-4
COCCN1CCOCC2(C1)CN(c1cc(OC)ncn1)CCO2 (stereo not drawn)	4

Ordered by molar mass (descending): part of the list above
smiles	Tg IFNy HTS
Cc1cccc(C)c1NC(=O)c1cc2cccnc2n(Cc2ccc(Cl)cc2)c1=O	12
Cc1ccnc(N2C[C@H](c3cccc(F)c3F)[C@@H]3[C@H]2C2CCN3CC2)n1	1
COc1ccc2c(c1)[C@]13CCCC[C@@H]1[C@H](C2)N(C)CC3	12

Next entries
smiles	Tg IFNy HTS
CN1CCC2(CC1)CC(COCC1CC1)N(Cc1cccnc1)C2 (stereo not drawn)	5
COC(=O)CN1CN(c2ccccc2)C2(CCN(Cc3ccc4ccccc4c3)CC2)C1=O	-8
CN1CCC(c2nc3ccc(N4CCOCC4)cn3n2)CC1	-37
CC(C)CN1CC2CN(C(=O)Cc3ccc(Cl)cc3)CC21 (stereo not drawn)	-3
Cc1ccc(C)c(NC(=O)c2cc3cccnc3n(Cc3ccc(F)cc3)c2=O)c1	56
O=C(CS(=O)C(c1ccccc1)c1ccccc1)NO (stereo not drawn)	5
Cc1noc(C)c1CN1CC[C@H]2[C@@H]1CCN2CC(C)C	1
O=C(NCCC1=CCCCC1)c1cc2cccnc2n(Cc2ccc(F)cc2)c1=O	-47
FC(F)(F)c1cccc(C2=CCN(CCc3ccc4ccccc4c3)CC2)c1	25&22
COc1cccc(NC(=O)c2cc3cccnc3n(Cc3ccccc3)c2=O)c1	6
COCCN1C[C@H]2CN(c3ccc(C)nn3)CCC[C@]2(C(=O)O)C1	-4
COc1ccc2c(c1)C1(CCN(C(=O)c3cccc(NC(C)=O)c3)CC1)CC2CC(=O)O (stereo not drawn)	6

Structure	Tg IFNy HTS
N#CC(C#N)=NNc1ccc(OC(F)(F)F)cc1	-47
Cc1cnc(N2CCC3C(C[C@@H](Cn4cncn4)N3C)C2)nc1 (stereo partly drawn)	-1
CCC(C)C(=O)O[C@H]1[C@H](O)C2C(CN3CC(C)CCC3[C@@]2(C)O)C2C[C@]34O[C@]5(O)C(OC(=O)C(C)(O)CC)CC[C@@]3(C)C5C(OC(C)=O)[C@@H](OC(C)=O)C4[C@@]21O (stereo partly drawn)	-19
O=C1NCCN(Cc2ccccc2)C12CCNCC2	89
CCCn1cc(C(=O)NC(C)C2=CCCCC2)c(C)n1 (stereo not drawn)	-5
CC(C)c1ccc(NC(=O)c2cc3cccnc3n(Cc3ccccc3F)c2=O)cc1	-24
NC(=O)OCCCc1ccccc1	14&5
CS(=O)(=O)N1C[C@@H]2c3ccccc3CN[C@@H]2C1	-11
O=C(NCc1ccc(F)cc1)c1cc2cccnc2n(Cc2ccc(Cl)cc2)c1=O	-37
COc1ccc(Cl)cc1NC(=O)c1cc2cccnc2n(Cc2ccccc2)c1=O	18
CN1CC=C(/C=C/c2c[nH]c3ccccc23)CC1	10
Cc1nc2ccccc2c(=O)n1-c1ccc(C(=O)O)cc1	4
COCC1(C(=O)NC2CN3CCC2CC3)CCC1 (stereo not drawn)	-2
COc1ccc(CCNC(=O)c2cc3cccnc3n(Cc3ccccc3F)c2=O)cc1	33
NCc1cc(=O)[nH]o1	-51
CCN1C[C@H]2CN(Cc3cccs3)C[C@H]2C1=O	-43
O=C(NCCCN1CCOCC1)c1cc2cccnc2n(Cc2ccc(F)cc2)c1=O	-36
Cc1noc(C)c1CN1CC[C@H]2[C@@H]1CCN2CC(=O)N(C)C	4
c1cc(CN2CC3CNC(C3)C2)co1 (stereo not drawn)	-18
O=C1CSC2N1CCNC21CCCCC1 (stereo not drawn)	5
Cc1ccccc1-n1nc(C)c(CC(=O)N2CCCCC2CN2CCCCC2)c1C (stereo not drawn)	-6
CC(C)(NC(=O)c1cccs1)C(=O)NCCc1cnc[nH]1	1
Cc1ccc(N2CC[C@@H]3[C@H]2CCN3Cc2ccc(C)o2)nn1	-14
CC[C@]12C=CCN3CCC4(c5cc(Br)c(OC)cc5N(C)C4[C@@](O)(C(=O)OC)[C@@H]1OC(C)=O)C32 (stereo partly drawn)	19
c1ccc(NC[C@H]2CCC[C@@]3(CCNC3)O2)nc1	4

Structure	Tg IFNy HTS
CN1CCN(Cc2cnn(C)c2)Cc2cccnc21	-2
OCc1ccccc1-c1ccc2c(c1)CNCC2	-14
Cc1ccnc(NC(=O)CCC(=O)N2CCCN3CCC[C@H]3C2)c1	72
CCN(C)c1ncc2c(c1C(=O)O)CCN(C1CCOC1)C2 (stereo not drawn)	8
O=C(CCCN1CCC(n2c(=O)[nH]c3ccccc32)CC1)c1ccc(F)cc1	-3
CCOC(=O)c1ccc(N2C[C@@H]3CNC[C@]3(C(=O)O)C2)nc1	-1
CC=Cc1ccc2n(c1=O)C[C@@H]1[C@@H](CO)[C@H](C(=O)OC)[C@H]2N1S(=O)(=O)c1ccccc1C (mixture of isomers)	6
O=C(Nc1ccccc1F)c1c(O)c2cccnc2n(Cc2ccccc2)c1=O	42
OC1CC2CCCC(C1)N2Cc1ccccc1 (stereo not drawn)	8
NCCc1ccc(O)cc1	-5&20
Cc1cccnc1NCCNC(=O)C1CC2(CCNCC2)CN1 (stereo not drawn)	3
Cn1c(=O)c(C2(O)C(=O)NC(=O)NC2=O)c(O)c2ccccc21	12
COCCN1C(=O)C2(CCN(Cc3nccs3)CC2)c2ccccc21	-2
N#Cc1nn(-c2c(Cl)cc(C(F)(F)F)cc2Cl)c(N)c1S(=O)C(F)(F)F (stereo not drawn)	1
CN1CCN(C(=O)Cc2cc(=O)[nH][nH]c2=O)CC1c1ccccc1 (stereo not drawn)	2
COc1ccc(C2(CN)CCCC2)cc1	24
COc1ccc(/C=C2\CCCN=C2c2cccnc2)c(OC)c1	-9
CCCCc1ccc(C(=O)O)nc1	3
O=C(c1cscn1)N1CC2CN(Cc3ccccn3)CC2C1 (stereo not drawn)	-2
CN1CCC2OCCCC2(COc2cccnc2)C1 (stereo not drawn)	-55
O=C(c1ccccn1)N1C[C@@H]2OCCN(CC3CCCO3)[C@H]2C1 (stereo partly drawn)	-36
CC(C)N(C)CC1CCC2(CCNCC2)CO1 (stereo not drawn)	-26
O=S1(=O)C=CC(NC2CCC3(CCNCC3)CC2)C1 (stereo not drawn)	3
Cc1cc(C(O)CN2CC=C(c3ccc(F)cc3)CC2)c(C)s1 (stereo not drawn)	60
C/C=C/c1ccc([C@@H]2[C@@H](CO)N3CCCCN(C(=O)Cc4cccnc4)C[C@@H]23)cc1	9

In a second layout: entries from further up
> Cc1cnc(N2CCC3C(C[C@@H](Cn4cncn4)N3C)C2)nc1 (stereo partly drawn)
  Tg IFNy HTS: -1
> CC(C)CN1CC2CN(C(=O)Cc3ccc(Cl)cc3)CC21 (stereo not drawn)
  Tg IFNy HTS: -3
> CCN(CC)Cc1ccc(C(=O)N(C)c2nc3c(s2)C2CCC(C3)N2C)o1 (stereo not drawn)
  Tg IFNy HTS: -10
> O=C(c1ccco1)N1CC2CC(C1)N(CCO)C2 (stereo not drawn)
  Tg IFNy HTS: 15

Filtered by structure, the compounds so far with a cyano group (three)
Structure	Tg IFNy HTS
C[C@@H]1CN(C2CCC(C#N)(c3ccc(F)cc3)CC2)CC[C@]1(C(=O)O)c1ccccc1 (stereo partly drawn)	2
N#CC(C#N)=NNc1ccc(OC(F)(F)F)cc1	-47
N#Cc1nn(-c2c(Cl)cc(C(F)(F)F)cc2Cl)c(N)c1S(=O)C(F)(F)F (stereo not drawn)	1

Later entries.
Structure	Tg IFNy HTS
O=C(NCCC(c1ccccc1)c1ccccc1)c1cc2cccnc2n(Cc2ccc(F)cc2)c1=O	-83*
CCN1CCOCC2(CCCN(c3nccc(C(F)(F)F)n3)C2)C1 (stereo not drawn)	-13
O=C(Nc1cccc(F)c1)c1cc2cccnc2n(Cc2ccccc2)c1=O	48
COCc1cncc2c1CCN(CC(C)C)C2	-2
CCCCNC(=O)c1cc2cccnc2n(Cc2ccccc2)c1=O	-6
OC[C@H]1[C@H]2c3ccccc3NC[C@H]2N1Cc1cccnc1	-43

This is a subset (hit frequency here may not be typical).
